FGF22 binding: binders of human FGF22 protein, primary screen, FGF22 synaptogenesis inhibitor project, biophysical, thermal shift, single point; Fibroblast growth factor 22 (Homo sapiens), Q9HCT0; recombinant FGF22 thermal shift, SYPRO orange fluorescence; percent of sucrose octasulfate shift, DMSO zero; calls only at 9.99 µM; 340,000 tested, 1.5% active;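 active = melting point raised past a set limit in the mean and every replicate; inconclusive = no clear call; three in four hits are not shown here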
Target sequence (Q9HCT0 whole entry, looked up): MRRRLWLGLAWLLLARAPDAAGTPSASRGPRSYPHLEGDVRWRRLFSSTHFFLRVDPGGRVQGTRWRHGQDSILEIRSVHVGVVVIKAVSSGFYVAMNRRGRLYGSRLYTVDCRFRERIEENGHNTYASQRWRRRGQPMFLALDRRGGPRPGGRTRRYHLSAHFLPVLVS
RanGTP-Imp inh: inhibitors of RanGTP-importin-beta interaction, primary screen, biochemical, FRET, CFP-Ran, YFP-importin-beta, homogeneous | inhibition, % (no concentration beside the values) | 300,000 tested, 1.1% active | Ran GTPase (GTP-bound) - importin-beta complex | cell-free CFP-Ran/YFP-importin-beta FRET ratio;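 active = most replicates above 15%; inconclusive = exactly half above 15%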;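 also: 0% = DMSO wells and 100% = Ran loaded with GDP instead of GTP; wells of about 40 µL received 100 nL stock; the first replicate is given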
T cruzi repl: inhibitors of intracellular T. cruzi growth, primary screen, luminescence, NIH3T3 host cells | 300,000 tested, 1.4% active | AID 1885, 2009 | inhibition, % (no concentration beside the values) | T. cruzi beta-gal in NIH3T3, 90 h;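 active = mean inhibition across valid replicates above about 55%, limit read from the data; inconclusive = mean below that limit but half or more replicates reach it; inactive = mean below it, under half of replicates reach it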;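 also: signal also drops with host cell toxicity which is not excluded here; 0% = plate median of DMSO wells and 100% = zero luminescence signal; higher percent means less beta-gal luminescence so fewer parasites; stock transfer was 50 nL into about 50 µL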
AF4-AF9 inh: inhibitors of AF4 peptide binding to AF9, primary screen, biochemical, AlphaScreen, biotin-AF4 peptide, FLAG-AF9, single point; inhibition, % at 10 µM; 350,000 tested, 0.47% active; Protein AF-9 (Homo sapiens), P42568;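 active = every replicate reaching a set inhibition limit, whatever the replicate mean, cut at about 25% in these data; inconclusive = mean inhibition reaches that limit but some replicates miss it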;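 also: 0% = plate neutral control median and 100% = total signal loss; the record names both 10 and 1 µM as test concentration; the first replicate is given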
Target sequence (P42568 whole entry, looked up): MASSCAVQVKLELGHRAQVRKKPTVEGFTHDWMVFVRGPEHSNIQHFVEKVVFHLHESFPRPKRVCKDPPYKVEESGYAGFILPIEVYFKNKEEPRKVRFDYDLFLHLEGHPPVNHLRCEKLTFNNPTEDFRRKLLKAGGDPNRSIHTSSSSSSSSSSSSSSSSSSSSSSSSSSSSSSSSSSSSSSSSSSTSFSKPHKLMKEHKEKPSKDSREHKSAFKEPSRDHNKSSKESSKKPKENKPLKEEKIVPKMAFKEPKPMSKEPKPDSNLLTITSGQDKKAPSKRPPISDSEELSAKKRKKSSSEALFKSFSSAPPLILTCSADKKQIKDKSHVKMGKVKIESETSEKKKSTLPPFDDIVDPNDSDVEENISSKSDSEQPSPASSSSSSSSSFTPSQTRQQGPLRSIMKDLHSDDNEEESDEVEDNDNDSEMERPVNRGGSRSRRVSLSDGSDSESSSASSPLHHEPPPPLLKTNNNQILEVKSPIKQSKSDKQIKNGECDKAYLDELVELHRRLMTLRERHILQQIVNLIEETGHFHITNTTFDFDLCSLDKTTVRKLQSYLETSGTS
Beta apoptosis: inhibitors of cytokine-induced beta cell apoptosis, primary screen, luminescence; INS-1E cytokine-induced death, ATP luminescence, 48 h; percent of positive-control rescue, neutral wells zero; 300,000 tested, 0.8% active; AID 435005, 2010; protection from apoptosis, % (test concentration not listed);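 active = all replicates at 75% or more, or half of them and the mean; inconclusive = half reach 75% but not the mean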;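 also: 0% = cytokine-treated negative control wells and 100% = positive control rescue; higher means more ATP so stronger rescue from cytokine killing; wells of about 40 µL received 100 nL stock; the first replicate is given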
ALR H2O2 inh: inhibitors of human ALR sulfhydryl oxidase, primary screen, biochemical, H2O2 detection, HRP-luminol luminescence, single point; FAD-linked sulfhydryl oxidase ALR (Homo sapiens), P55789; purified ALR, DTT oxidation; inhibition, % (concentration not given with the values); 290,000 tested, 3.8% active;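 active = mean and each replicate at 75% or more; inconclusive = only one of the two met; inactive = neither met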;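 also: stock transfer was 7.5 nL into about 7.5 µL; 0% = neutral wells and 100% = wells with inactivated enzyme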
Target sequence (P55789 whole entry, looked up): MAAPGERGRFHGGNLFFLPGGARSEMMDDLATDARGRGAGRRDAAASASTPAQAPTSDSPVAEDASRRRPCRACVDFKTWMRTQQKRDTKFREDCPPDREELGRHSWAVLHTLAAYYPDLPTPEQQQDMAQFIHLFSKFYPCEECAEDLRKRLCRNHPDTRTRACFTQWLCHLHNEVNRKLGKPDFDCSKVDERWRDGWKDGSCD
Ecoli rRNA inh: reduced GFP signal of wild-type E. coli, primary screen, bacterial rRNA inhibitor project, GFP/RFP fluorescence, OD600, single point. E. coli WT GFP vs humanized-ribosome RFP mutants, 24 h; active compounds read low; DMSO median 0, no signal -100. GFP signal change (wild-type ribosome), % (no concentration beside the values). 350,000 tested, 1.6% active;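 active = significant combined selectivity score with lowered wild-type GFP, culture density cut under 30%, mutant RFP and density less affected; inactive = any of these conditions unmet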; also: one replicate is shown; some compounds called inactive have numbers as strong as hits
Calb FLC: C. albicans growth inhibition with fluconazole, primary screen, CaCi-2 strain, Alamar Blue fluorescence. C. albicans CaCi-2 (fluconazole-resistant clinical isolate) + fluconazole, 48 h. growth inhibition, % (concentration not given with the values). 300,000 tested, 0.57% active;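 active = most replicates above 75%; inconclusive = exactly half above 75%; inactive = most below 75%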;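 also: all wells also contain fluconazole at 8 µg/ml as a sub-toxic cotreatment; 0% = median of DMSO wells and 100% = median of geldanamycin control wells; wells of about 8 µL received 7.5 nL stock; the first replicate is given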
Ecoli rRNA inh OD600: further read-out of Ecoli rRNA inh, marked with its call; OD600 change, %; measured here: OD600 growth;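 optical density of the mix in the first replicate; 0 = DMSO median and -100 = no signal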
Ecoli rRNA inh RFP: second read-out of Ecoli rRNA inh, no call of its own (marks repeat the call); RFP signal change, %; measured here: RFP humanized mutant strains;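 first replicate; 0 = DMSO median and -100 = no signal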
* marks the source's active call; other numbers are inactive results; i = inactive; ? = inconclusive; . = not tested or not shown. An excerpt; count on the stated rates, not on these rows.

compound,T cruzi repl,Beta apoptosis,Ecoli rRNA inh,Ecoli rRNA inh RFP,FGF22 binding,Ecoli rRNA inh OD600,ALR H2O2 inh,RanGTP-Imp inh,AF4-AF9 inh,Calb FLC
NC(=O)C1CC(=O)N(c2ccc(OCC(=O)Nc3ccc(F)cc3)cc2)C1 (stereo not drawn),.,-1,11,-0.7,i,9,0,.,1.9,.
Cc1cccc(/C=N\NC(=O)c2csnn2)c1,-7,-2,.,.,.,.,.,?,.,-5
Cc1cccc(C)c1N1CCN(S(=O)(=O)N(C)C)CC1,26,4,-31,-7.0,i,-43,8,1.3,0.7,-11
O=C(O)c1ccccc1O,?,-2,.,.,i,.,-11,-2.4,-1.6,7
O=C(COC(=O)CNS(=O)(=O)c1c(F)cccc1F)NC(=O)NC1CCCCC1,.,-3,10,-0.6,i,11,-1,.,-0.8,.
COc1ccccc1NC(=O)CN1CCN(c2ccccn2)CC1,-17,0,-10,-3.6,i,-10,-13,4.4,0.7,-5
O=C(Nc1ccc(-n2cccn2)cc1)C1CCN(Cc2ccsc2)CC1,-3,2,11,-1.8,i,4,-2,5.1,0.8,-3
COc1ccc(/C=N/N2C(=O)CSC2=S)cc1Br,10,-2,0,8.0,i,-9,16,0.1,-5.7,-7
FC(F)(F)c1nc(NCc2ccccc2)c2nnn(Cc3ccccc3)c2n1,11,.,3,-3.1,i,8,-1,-1.6,0.7,0
CCCSc1nnc(-c2c[nH]c3ccccc23)n1CC,5,-6,-7,2.2,i,-18,-9,17*,-8.6,0
O=C(NCCCN1CCOCC1)c1ccc(Sc2ccccc2Cl)c([N+](=O)[O-])c1,12,12,.,.,.,.,-1,8.5,.,-10
COc1ccc(/C=C(\C#N)C(=O)NCc2cccs2)cc1OC,-5,0,.,.,.,.,0,-16,.,-7

Further entries.
compound,T cruzi repl,Beta apoptosis,Ecoli rRNA inh,Ecoli rRNA inh RFP,FGF22 binding,Ecoli rRNA inh OD600,ALR H2O2 inh,RanGTP-Imp inh,AF4-AF9 inh,Calb FLC
CCc1nnc(NC(=O)CN2C(=O)/C(=C/c3ccc(OC)c(OC)c3)SC2=S)s1,-4,-10,.,.,.,.,9,0.1,.,-2
CC(=O)Nc1ccc(S(=O)(=O)NCC(=O)OCC(=O)c2ccc[nH]2)cc1,.,0,3,-2.0,i,8,.,.,-1.0,.
COc1ccccc1C(c1nnnn1CC1CCCO1)N1CCC(C(N)=O)CC1 (stereo not drawn),6,-2,.,.,.,.,-1,-1.7,.,5
Cn1nc(-c2ccc(Cl)cc2)c2cc(C(=O)N3CCN(c4ccccc4)CC3)sc21,24,.,3,3.1,i,5,29,0.6,13,1
COc1ccc(-c2csc3nc(-c4ccccc4)oc(=O)c23)cc1OC,-35,0,4,-2.0,i,1,4,-0.3,-5.0,29
Cc1ccc(NS(=O)(=O)c2ccc(CCC(=O)NCc3ccccn3)cc2)cc1,2,-1,-35,-7.2,i,-44,-4,-2.7,0.5,-5
CCN(CC(=O)Nc1c(F)cccc1F)C(=O)CCCOc1ccc(OC)cc1,-11,3,3,-1.6,i,1,-1,?,-3.9,-3
O=C(CSC(=S)N1CCCC1)Nc1cc2c(cc1Br)OCCO2,-6,-4,7,1.4,i,4,-10,-1.5,-0.9,6
COc1cccc(CN(C)C(=O)CCC(=O)c2cc(Br)ccc2OC)c1,.,-1,-5,0.7,i,-32,-5,.,-1.5,.
CC(=O)Nc1ccc(S(=O)(=O)Nc2ccccn2)cc1,-15,-1,11,0.1,i,9,2,-3.9,-1.1,7
Cc1ccc(S(=O)(=O)N2CCN(C(=O)CSc3nnnn3C)C2)cc1,-15,-3,.,.,.,.,-1,-4.3,.,-6
COc1ccccc1CCNC(=O)C(=O)NCC1OCCN1S(=O)(=O)c1ccc2c(c1)OCCO2 (stereo not drawn),14,-2,-2,1.1,i,-10,-14,10,2.0,-2

Next part.
compound,T cruzi repl,Beta apoptosis,Ecoli rRNA inh,Ecoli rRNA inh RFP,FGF22 binding,Ecoli rRNA inh OD600,ALR H2O2 inh,RanGTP-Imp inh,AF4-AF9 inh,Calb FLC
Cc1ccc(C(=O)Nc2nn(C)c3cccc(F)c23)cc1,-3,.,8,0.8,i,11,-2,-3.9,.,-7
CCOc1cccc(-c2csc(C3COc4ccccc4O3)n2)c1 (stereo not drawn),-15,-1,.,.,.,.,3,4.5,.,5
COc1ccc(S(=O)(=O)Cc2ccc(C(=O)NC3CCC(C)CC3)o2)cc1 (stereo not drawn),-3,-11,-7,-3.3,i,-4,1,21,-2.2,6
C=CCSc1nnc(-c2ccccc2NC(C)=O)c(=O)[nH]1,-5,2,.,.,.,.,-1,3.7,.,0
Fc1ccc(/C=N/NC2=Nc3cccc4cccc2c34)cc1,8,-4,.,.,.,.,-8,2.6,.,6
NC(=O)c1c(NC(=O)Cn2nc(C(=O)O)c3ccccc3c2=O)sc2c1CCC2,0,-2,2,6.6,i,8,.,?,-1.5,-4
CC(C)(C)NC(=O)Nc1ccc(F)c(Cl)c1,-14,3,2,0.9,i,-1,-8,-0.3,-3.3,10
COc1ccc(-c2nc(CS(=O)CC(=O)NC3CCCCC3C)c(C)o2)cc1OC (stereo not drawn),-14,-8,-2,1.9,i,-10,99*,-0.6,2.0,13
Cc1noc(C)c1CSc1nnc2scc(-c3ccccc3)n12,10,-9,.,.,.,.,5,-3.9,.,-28
N#Cc1cccc(S(=O)(=O)N2CCN(c3ccnc4cc(Cl)ccc34)CC2)c1,29,12,-6,-0.1,i,-12,-6,1.7,0.3,33
CCOC(=O)C1(Cc2ccccc2)CCCN(C(=O)c2ccc(-n3ccnc3)cc2)C1 (stereo not drawn),13,-2,-1,1.7,i,-3,-9,1.5,1.6,-1
Cc1csc(NC(=O)CSc2nnc(CCNC(=O)c3cccs3)n2C)n1,-6,0,.,.,.,.,4,-0.1,.,-19

Remaining list, next part.
compound,T cruzi repl,Beta apoptosis,Ecoli rRNA inh,Ecoli rRNA inh RFP,FGF22 binding,Ecoli rRNA inh OD600,ALR H2O2 inh,RanGTP-Imp inh,AF4-AF9 inh,Calb FLC
CCOc1ccc(N2CC(C(=O)Nc3cc(C)on3)CC2=O)cc1 (stereo not drawn),-12,-1,9,-6.7,i,7,-2,-2.7,0.4,1
COC(=O)c1ccccc1NC(=O)CN1CCC(NC(=O)c2ccc(C)cc2)CC1,2,9,12,2.9,.,10,-9,0.3,.,?
CC(=O)Nc1ccc(C(=O)N2CC(=O)NC(=O)C2)cc1,-12,1,4,-2.0,i,4,-3,-3.8,-4.2,9
O=C(CNS(=O)(=O)c1ccc(F)cc1)N1CCN(c2ccccc2)CC1,4,-5,-2,-4.7,i,-2,25,2.4,2.8,15
CCOc1ccc(-n2c(SCC(=O)NCc3ccco3)nc3c([nH]c4ccccc43)c2=O)cc1,21,-1,.,.,.,.,4,-2.9,.,32
Cc1ccccc1NC(=O)c1c2c(nc3ccccc13)CCC2,-14,-2,5,-0.4,i,11,4,4.1,0.4,-15
CCOC(=O)Cc1csc(NC(=O)Nc2ccc(C)cc2)n1,-9,.,-16,-4.3,i,-4,-6,-0.9,-0.4,2
COc1ccccc1NC(=S)NC(C)=O,-8,-4,10,2.7,i,17,-3,2.0,-2.1,-4
CC1=Nc2cc(C(=O)N3CCCC3)ccc2Sc2c(C)ccc(C)c21,15,-1,-2,-5.3,i,-13,-2,-11,4.4,16
COc1c(C)cccc1C(=O)Nc1ccc(OCC(=O)N2CCOCC2)cc1C,-2,-2,6,1.3,i,12,-2,0.5,-1.3,-3
Cn1c(=O)c2c(nc(N/N=C/c3ccc(OC(=O)c4ccco4)cc3)n2Cc2ccccc2Cl)n(C)c1=O,-6,31,.,.,.,.,-4,3.3,.,-7
COc1ccc(CCN(C)CC(O)c2ccccc2)cc1OC (stereo not drawn),?,-3,5,-0.3,i,2,-25,-4.9,1.4,-6

Next part:
compound,T cruzi repl,Beta apoptosis,Ecoli rRNA inh,Ecoli rRNA inh RFP,FGF22 binding,Ecoli rRNA inh OD600,ALR H2O2 inh,RanGTP-Imp inh,AF4-AF9 inh,Calb FLC
COc1ccc(C(C)=O)cc1CSc1nc2nc(C)cc(C)n2n1,4,-3,-6,0.0,i,-10,9,-1.3,1.6,0
O=C(NCc1ccccc1CN1CCCC1)c1cc2ccccc2o1,.,-12,9,-0.8,i,10,-2,.,3.9,.
CCOC(=O)c1c(C)[nH]c(C(=O)COC(=O)c2ccc(N3CCCC3=O)cc2)c1C,0,2,.,.,.,.,.,-0.9,.,-3
O=C(O)CCCn1cc(NC(=O)COc2ccccc2F)cn1,0,-8,3,1.0,i,10,.,6.5,0.4,-2
Cc1ccc(-c2c[n+](CC(=O)N3c4ccccc4Sc4ccccc43)c3n2CCC3)cc1,42,.,-58,-32,i,-82,22,0.0,16,109*
Cc1cc(=O)n2nc(N3CCCC(C(=O)NCc4ccc(F)cc4)C3)sc2n1 (stereo not drawn),-7,-6,1,-1.4,i,6,.,-0.3,-3.7,-8
CC(=O)N1N=C(c2ccc(C)o2)CC1c1ccc(Br)cc1 (stereo not drawn),1,-6,.,.,.,.,3,-3.1,.,-4
COc1cccc(N(C(=O)C2CSC(=O)C2)C(C(=O)NC(C)(C)C)c2ccncc2)c1 (stereo not drawn),4,-1,7,-0.4,i,13,-3,-2.2,-1.0,39
O=C(Nc1cccc(F)c1)c1cc(S(=O)(=O)NCCC2=CCCCC2)ccc1F,0,1,.,.,.,.,-2,-4.9,.,-35
N#Cc1ccc(NC(=O)N2CCC(c3nc4c(nnn4Cc4cccc(Cl)c4)c(=O)[nH]3)CC2)cc1,13,-13,.,.,.,.,-30,-1.0,.,5

Compound activity: PubChem BioAssay, Broad Institute
